From PubChem
Tg IFNy HTS: inhibitors of Toxoplasma gondii growth with IFN-gamma. Toxoplasma gondii growth in IFN-gamma-treated host cells; active compounds read low; reference of the scale not given here. activity change, negative = inhibition, %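 (about 20 µM by stock and volumes)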. actives 3.8% (n = 69,000);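 active = below -70%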;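 note: host cells are HeLa cells infected with Toxoplasma gondii; parasite growth read as luciferase light; one replicate is shown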
Numbers without * were called inactive; i = inactive; & = joins results of further samples. Some of the compounds tested; count on the stated rates, not on these rows.

| molecule | Tg IFNy HTS |
| --- | --- |
| O=C(Nc1ccc(N2CCOCC2)cc1)c1cn2c(n1)CSCC2 | 95 |
| CO[C@H]1CN(C)C(=O)c2cc(NC(=O)C3CCCCC3)ccc2OC[C@@H](C)N(C(=O)c2ccccc2)C[C@H]1C | -42 |
| C[C@H]1CCCCO[C@@H](CN(C)Cc2ccc3c(c2)OCO3)[C@@H](C)CN([C@@H](C)CO)C(=O)c2cc(NS(=O)(=O)c3cn(C)cn3)ccc2O1 | 255 |
| CC(C)C(=O)c1nc2c(s1)CCCN2c1ncccn1 | 269 |
| O=C1NCCN1CCNC(=S)Nc1cc(C(F)(F)F)cc(C(F)(F)F)c1 | -29 |
| CC(=O)OCc1cc(C(C)=O)ccc1OC(C)=O | -3 |
| C[C@@H]1CCCCO[C@H](CN(C)C(=O)Nc2cccc3ccccc23)[C@@H](C)CN([C@@H](C)CO)C(=O)c2cc(NC(=O)CCC(F)(F)F)ccc2O1 | i |
| CCC(=O)N1CC[C@@H](OCc2ccccn2)[C@@H](Cc2ccccc2)C1 | -2 |
| N#CC1(C(=O)N2CCCn3nnc(Cn4cccc4)c3C2)CC1 | -27 |
| CCCNC(=O)C[C@@H]1CC[C@H]2[C@@H](COC[C@@H](O)CN2C(=O)Nc2ccc(Cl)c(Cl)c2)O1 | -25 |
| OC1(c2cccc(C(F)(F)F)c2)CCN(Cc2c(F)cccc2F)CC1 | -8 |
| COC(=O)c1cc(NC(=O)C2=C(C)C(=O)OC23CCN(Cc2ccccc2)CC3)cc(C(=O)OC)c1 | -7 |
| Cc1nc(C)c(C(=O)c2ccccc2)cc1C(=O)c1ccccc1 | -10 |
| CC(C)Oc1ccc2c(=O)c(-c3ccccc3)coc2c1 | 431 |
| Cc1cccc(-c2nnc(-c3nc(NCCc4ccco4)c4ccccc4n3)o2)c1 | -100* |
| CCN1C/C(=N\S(=O)(=O)c2ccc(C)cc2)N(CC)C1=O | 2 |
| O=C(NCCc1csc(-c2cccc(F)c2)n1)C1CCCC1 | 6 |
| COc1ccc(CCNc2nc(SCc3cccc(F)c3)nc3ccccc23)cc1OC | -26 |
| COc1ccc(-c2nc(Nc3ccccc3C)c3ccccc3n2)cc1 | -46 |
| CC(C)(C)c1ccc(C(=O)c2cccs2)s1 | 70 |
| CN(Cc1ccccc1)S(=O)(=O)c1cc2c3c(c1)CCC(=O)N3CCC2 | 53 |
| CN(Cc1cccc2ncccc12)C(=O)c1cccc(C2CCNC2)c1 (stereo not given) | 4 |
| CCOc1ccc(-c2cc3c(=O)n(Cc4nc(-c5ccccc5)oc4C)ccn3n2)cc1 | 96 |
| CCCS(=O)(=O)N[C@@H]1C[C@@H](C(=O)OC)N(C)C1 | 5 |
| CCOC(=O)c1c(NCc2ccc(F)cc2)c2ccc(Cl)cc2[nH]c1=O | -22 |
| O=C(c1nc2c(s1)CCCC2)N1[C@H]2CCNC[C@@H]1CC2 | -1 |
| Cc1ccc(-c2nnc(CNCCSc3nnnn3C)o2)n1C | 4 |
| Oc1[nH]c2ccccc2c1N=Nc1nc(Nc2ccccc2)nc(N2CCOCC2)n1 | -99* |
| Cc1noc(C)c1C1CCCN1Cc1c(-c2ccccc2)nc2ncccn12 (stereo not given) | -3 |
| CN1CCN(C(=O)c2ccc(C3CCCN3C(=O)CNS(C)(=O)=O)nc2)CC1 (stereo not given) | -39 |

The results go on.
| molecule | Tg IFNy HTS |
| --- | --- |
| CC(=O)N1CC[C@@]2(C[C@@H](NS(=O)(=O)C3CC3)CCO2)C1 | -31 |
| CCS(=O)(=O)c1ccc(O)c(NC(=O)Nc2ccc(C)c(Cl)c2)c1 | -48 |
| CN1C(=O)c2cc(NC(=O)C3CCOCC3)ccc2OC[C@H]2O[C@@H](CC(=O)Nc3ccc4c(c3)CCCC4)CC[C@@H]21 | 7 |
| CC(C)N1CCN(C(=O)c2cc3c(c4ccccc4n3C(C)C)n2C(=O)N(C)C)CC1 | -5 |
| Cc1cccnc1CN1CCN(Cc2ccc(-c3ccn[nH]3)o2)CC1 | 3 |
| CO[C@H]1CN(C)C(=O)c2cc(NS(C)(=O)=O)ccc2OC[C@@H](C)N(C(=O)C2CCOCC2)C[C@@H]1C | -67 |
| O=C(NCCN1CCc2ccccc21)C1Oc2ccccc2O1 | 25 |
| COc1cc(OC)cc(C(=O)N2CCC3(CC2)Nc2cc(F)ccc2-n2cccc23)c1 | 49 |
| O=C(c1ccco1)N1C[C@H]2CN(c3cncnc3)C(=O)[C@@H]2C1 | 0 |
| C[C@@H]1CN([C@@H](C)CO)C(=O)c2cccc(NC(=O)Nc3ccc(F)cc3)c2O[C@H]1CN(C)S(=O)(=O)c1ccc(Cl)cc1 | -53 |
| COc1ccc2c(c1)C=C(CN1CCCC(c3ccc(-c4cnn(C)c4)cn3)C1)CO2 (stereo not given) | 42 |
| CCOC(=O)N1CCC2(CC1)NCCc1[nH]cnc12 | -15 |
| Cc1ccc(C2(O)CCN(Cc3cc(C#CCO)cs3)CC2)nc1 | -21 |
| Cc1cc(C2C(=O)CC(=O)CC2c2ccccc2)on1 (stereo not given) | 9 |
| Cn1c2c(ccc1=O)CC(NCc1nccs1)CC2 (stereo not given) | 8 |
| CCSc1nc(CC(=O)N[C@H]2CCN(Cc3ccccc3)C2)cs1 | -1 |
| COCc1nc(NCc2ccc(Cl)c(Cl)c2)c2cnn(C)c2n1 | -25 |
| CCc1nc2cc(NC(=O)c3csc(C(C)=O)c3)ccc2n1C | 488 |
| COC(=O)c1cc2n(n1)CCCN(C(=O)c1sccc1NC(C)=O)C2 | 0 |
| CCN1C(=O)[C@@H]2CN(C(=O)N(C)C)C[C@H]2C12CCN(C(=O)c1ccno1)CC2 | 2 |
| CCC1=N[C@@]2(CC[C@@H]3CN(C(=O)NC4CCCC4)C[C@H]32)C(=O)N1C | 8 |
| CN(C)C(=O)c1cccc(-c2ccccc2[C@H]2[C@@H](C#N)N(C(=O)C3CCCCC3)[C@H]2CO)c1 | -53 |
| S=C(SCc1cn2ccccc2n1)N1CCOCC1 | -15 |
| CCCN(CCC)CCc1cccc2c1CC(=O)N2 | -6 |
| c1coc(-c2ncc(-c3nccn3CCSc3cn[nH]n3)cn2)c1 | -8 |
| COCC(=O)N1CC[C@@H]2[C@H]1c1cc(C#Cc3ccc(F)cc3)ccc1N[C@@H]2CO | 1 |
| Cc1cc(C(F)(F)F)nc(CCn2cc(-c3ccnc4ccccc34)nn2)n1 | -17 |
| Cc1nc(OCC(=O)Nc2ccc(Cl)cc2Cl)c2ccccc2n1 | 6 |
| O=C(Nc1cccs1)N1CCN(C(=O)C2CCCO2)CC1 (stereo not given) | 91 |
| COc1cccc(C2CCCCN2S(=O)(=O)N2CCC(OC)CC2)c1 (stereo not given) | -67 |

Random excerpt: two entries already listed
| molecule | Tg IFNy HTS |
| --- | --- |
| CO[C@H]1CN(C)C(=O)c2cc(NS(C)(=O)=O)ccc2OC[C@@H](C)N(C(=O)C2CCOCC2)C[C@@H]1C | -67 |
| Cn1c2c(ccc1=O)CC(NCc1nccs1)CC2 (stereo not given) | 8 |

Next structures follow:
| molecule | Tg IFNy HTS |
| --- | --- |
| COc1ccccc1-c1nc(Cn2nnc(-c3nc(-c4cccs4)no3)c2C)c(C)o1 | -24 |
| CN(Cc1cc(-c2ccccn2)no1)C(=O)C1(c2ccccc2F)CC1 | -2 |
| CCC(=O)N1CCc2c(nnn2CC2CC2)C1COCc1ccccc1 (stereo not given) | -7 |
| Oc1ccc(Cl)c2c1CCC2 | -30 |
| COc1nc2ccccc2cc1CN1CCC(OCc2cccnc2)CC1 | 11 |
| C[C@@H]1CN([C@@H](C)CO)C(=O)c2ccccc2-c2ccccc2CO[C@@H]1CN(C)C(=O)[C@H]1CCCN1C | -8 |
| O=C(Nc1ccc2c(c1)COCO2)c1sc2ccccc2c1Cl | 316 |
| CCOc1cccc(-c2ccc(C(=O)NC)s2)c1 | 171 |
| Cc1ccc(CN2CCc3ccc(=O)n(Cc4cccnc4)c3CC2)o1 | 32 |
| CC(C)c1cn(CC(=O)Nc2ccc(CN3C(=O)NC(C)(C)C3=O)cc2)nn1 | 16 |
| Cc1cccc(CNC(=O)c2cn3c(n2)CCCC3)c1 | 70 |
| CCCCc1c(O)nc2ccccn2c1=O | -45 |
| O=C1NCC2(CCCN(C(=O)c3ccccc3-c3ncc[nH]3)C2)O1 (stereo not given) | 30 |
| COc1cccc(-n2c(=O)c(C(=O)NC3CCCCCC3)c(O)c3cccnc32)c1 | -113* |
| COc1ccc2oc(C(=O)N(Cc3ccccn3)C3CCCC3)cc2c1 | 13 |
| c1ccc(NCCn2cnc(-c3ccccc3)c2-c2ncc[nH]2)cc1 | -1 |
| Cc1ccc(C(=O)N2CC[C@H]3[C@@H]2CCN3c2nncs2)o1 | 17 |
| O=C(Nc1nnc(/C=C/c2ccccc2)s1)c1ccc(Cl)c(Cl)c1 | 20 |
| CC(C)N(C)CC1CCC2(CCN(c3ncccn3)CC2)CO1 (stereo not given) | -7 |
| c1csc(C2N3CCC4(CC3)c3[nH]c5ccccc5c3CCN24)c1 (stereo not given) | -1 |
| CC(C)NC(=O)N1[C@H](CO)[C@@H](c2ccccc2)[C@@H]1CN(C)C(=O)c1cccnc1 | 20 |
| CCN(CC)CCCC(C)Nc1nc(C)cc(Nc2ccc3nc(C)cc(N)c3c2)n1 (stereo not given) | -8 |
| C[C@H](Cn1c(=O)oc2ccccc21)NC(=O)c1cccc(N2CCCCS2(=O)=O)c1 | -7 |
| CCCCc1ccc2nc(NC(=O)OC)[nH]c2c1 | -32&-61 |
| Cc1nn(CCC#N)c(C)c1Sc1ncccn1 | 40 |
| CN1CCN(C(=O)C[C@H]2CC[C@@H]3[C@H](COC[C@H](O)CN3Cc3cccc(-c4ccncc4)c3)O2)CC1 | -8 |
| O=C(CCS(=O)(=O)c1ccc(Cl)c(Cl)c1)OCC(=O)c1ccccc1 | 3 |
| CC(=O)Nc1cccc(C(=O)N(Cc2ccsc2)CC(C)C)c1 | -79* |
| COCCc1ncc(CN2CCC(c3cc(Cc4cccc(OC)c4)cc(C)n3)CC2)cn1 | -30 |
| CNC(=O)c1ccc(-c2nc(CN3CCN(C(=O)Nc4ccc(OC)cc4OC)CC3)c(C)o2)cc1 | 4 |

(continued)
| molecule | Tg IFNy HTS |
| --- | --- |
| COc1ccc(CN2C[C@H]3OCCN(CCN(C)C)[C@H]3C2)cc1 | 6 |
| CN(CCC(=O)Nc1cccc(Cl)c1)CC1(CO)CCOCC1 | -6 |
| CC#CCN(Cc1ccco1)C(=O)c1cc(C)c(C)c(S(N)(=O)=O)c1 | 7 |
| O=C(C[C@H]1CC[C@H]2[C@@H](COC[C@@H](O)CN2S(=O)(=O)c2ccc(F)cc2)O1)NCCN1CCCCC1 | 4 |
| CCc1nc(OCC(=O)Nc2ccccc2Br)c2ccccc2n1 | 0 |
| Cc1ccc(-c2ncc(CN(Cc3ccccc3)Cc3cccc(C)n3)cn2)cc1 | -79* |
| CCOC1CC2(CCN(Cc3cccn3C)CC2)C1 | 14 |
| CCOc1ccc(-c2c(-c3ccccc3)ncn2CCC(N)=O)cn1 | -1 |
| CCN1CCN(CC(=O)Nc2ccccc2C(F)(F)F)CC1 | 0 |
| Cn1cc(Cc2cc(=O)n3[nH]c(C(C)(C)C)cc3n2)c(-c2ccc(F)cc2)n1 | 14 |
| C[C@@H](NC(=O)c1ccc2c(c1)OCCO2)c1nc2cc(-c3ccccc3F)ncn2n1 | -41 |
| Cc1cccc(CN2CC[C@@H]3OCC[C@@]3(COc3ncccc3F)C2)n1 | -4 |
| Cc1cc(C(=O)N2CCC3(CC2)COc2ccccc2S(=O)(=O)N(CC(C)C)C3)no1 | -9 |
| COc1ccc(OCC(=O)N2CC3(C)CC2CC(C)(C)C3)cc1 (stereo not given) | -8 |
| COc1ccc(N2C(=O)CN(C(=O)c3ccccc3SC)CC2(C)C)cc1 | 12 |
| COc1ccc(CNC(=O)Cn2c(=O)cc(-c3nc(C)no3)c3ccccc32)cc1 | 2 |
| CCC(C)N1CCN(CC2CC3C=CC2C3)CC1 (stereo not given) | -10 |
| Cn1nc(C2CCN(C(=O)c3nsc(Cl)c3Cl)CC2)c2cccnc21 | -49 |
| N#Cc1cccc(-c2ccc(C3[C@@H]4CNC[C@H]3N4)cc2)c1 (stereo not given in full) | 17 |
| O=C(C[C@@H]1CC[C@H]2[C@@H](COC[C@@H](O)CN2C(=O)Nc2cccc(F)c2)O1)NCCCN1CCOCC1 | -51 |
| Cc1ccc(NC(=O)c2nnn(Cc3nc(-c4ccc(Cl)cc4)oc3C)c2C)c(Br)c1 | 54 |
| CCc1cccc(NC(=O)Cn2c(=O)ccc3cc(S(=O)(=O)N4CCCC4)ccc32)c1 | 322 |
| CCCn1cnnc1CNC(=O)c1noc2c1CCCC2 | -9 |
| Cc1ccc(-c2nc(Cn3nnc(C(=O)NCc4ccccc4)c3C)c(C)o2)cc1 | -34 |
| CS(=O)(=O)N1CCN(S(=O)(=O)c2ccc3ccccc3c2)CC1 | 2 |
| CC(=O)NCC1=CCCN(C(c2ccccc2)c2ccccc2)C1 | 5 |
| Nn1c(Cc2cccs2)nc2ccccc2c1=O | 5 |
| COC(=O)[C@H]1CN(C(=O)c2ccco2)C[C@@H]1c1ccc(F)cc1 | 1 |
| CNC(=O)[C@H]1C[C@H]2CCN(S(=O)(=O)N(C)C)C[C@H]2O1 | 99 |
| S=C(Nc1ccc(Cl)cc1Cl)NC(Cn1ccnc1)c1ccccc1 (stereo not given) | -35 |

(more compounds)
| molecule | Tg IFNy HTS |
| --- | --- |
| O=C(C[C@@H]1CC[C@H]2[C@@H](COC[C@H](O)CN2Cc2nccs2)O1)N1CCC(Cc2ccccc2)CC1 | -43 |
| COc1ccc(CN2C[C@@H]3CCN(C(=O)c4ccno4)CC[C@H]3S2(=O)=O)cc1 | -6 |
| COc1ccc(Nc2nc(-c3ccc(OC)cc3)nc3ccccc23)cc1 | -28 |
| N#Cc1c2c(c(-c3ccccc3)[nH]c1=O)CCCC2 | 3 |
| CN(Cc1cc2n(n1)CCCNC2)Cc1cccc2cccnc12 | -4 |

Compounds listed so far with two or more sulfur atoms (four):
| molecule | Tg IFNy HTS |
| --- | --- |
| CC(C)(C)c1ccc(C(=O)c2cccs2)s1 | 70 |
| CCSc1nc(CC(=O)N[C@H]2CCN(Cc3ccccc3)C2)cs1 | -1 |
| S=C(SCc1cn2ccccc2n1)N1CCOCC1 | -15 |
| CS(=O)(=O)N1CCN(S(=O)(=O)c2ccc3ccccc3c2)CC1 | 2 |
